# Source: PubChem
# Sfp inh: inhibitors of Bacillus subtilis Sfp phosphopantetheinyl transferase; AID 1490; Potency, µM, for inactives: max response, negative = inhibition, hits mostly inhibitors; 310,000 compounds, 3.5% hits; Biochemical Sfp PPTase activity, qHTS; Q9F4F7; active means well fitted inhibition curve with a large enough effect; inconclusive means small, poorly fitted or top-dose-only effect, or another doubt; inactive means no such curve, though single readings can be large or run the other way;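 further: the enzyme is Sfp with the accession as filed and its product quenches rhodamine fluorescence; potency means the concentration at half of the fitted maximal effect; 0% = enzyme reaction without inhibitor and -100% = no enzyme wells; top concentration of the series not given in the record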
#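 Sfp 15 nM + cpd, 15 min RT; start w/ rhodamine-CoA 5 uM, BHQ-2-YbbR 12.5 uM (final); 50 mM Hepes pH 7.6, 10 mM MgCl2, 0.01% NP-40, 0.01% BSA; read 525/598 nm at 0 and 30 min.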
# TRPV1 PAM: human TRPV1 potentiation. Q8NER1. TRPV1-expressing cells, Fluo-8 calcium influx, capsaicin EC20 potentiation; host cell line not named in the record; control for the full effect not named in the record. potentiation, % at 8.33 µM. 320,000 compounds, 0.02% hits; active means potentiation above 80%; inconclusive means 30% to 80%; inactive means below 30%; further: 0% is about no effect
# Target sequence (Q8NER1 whole entry, looked up): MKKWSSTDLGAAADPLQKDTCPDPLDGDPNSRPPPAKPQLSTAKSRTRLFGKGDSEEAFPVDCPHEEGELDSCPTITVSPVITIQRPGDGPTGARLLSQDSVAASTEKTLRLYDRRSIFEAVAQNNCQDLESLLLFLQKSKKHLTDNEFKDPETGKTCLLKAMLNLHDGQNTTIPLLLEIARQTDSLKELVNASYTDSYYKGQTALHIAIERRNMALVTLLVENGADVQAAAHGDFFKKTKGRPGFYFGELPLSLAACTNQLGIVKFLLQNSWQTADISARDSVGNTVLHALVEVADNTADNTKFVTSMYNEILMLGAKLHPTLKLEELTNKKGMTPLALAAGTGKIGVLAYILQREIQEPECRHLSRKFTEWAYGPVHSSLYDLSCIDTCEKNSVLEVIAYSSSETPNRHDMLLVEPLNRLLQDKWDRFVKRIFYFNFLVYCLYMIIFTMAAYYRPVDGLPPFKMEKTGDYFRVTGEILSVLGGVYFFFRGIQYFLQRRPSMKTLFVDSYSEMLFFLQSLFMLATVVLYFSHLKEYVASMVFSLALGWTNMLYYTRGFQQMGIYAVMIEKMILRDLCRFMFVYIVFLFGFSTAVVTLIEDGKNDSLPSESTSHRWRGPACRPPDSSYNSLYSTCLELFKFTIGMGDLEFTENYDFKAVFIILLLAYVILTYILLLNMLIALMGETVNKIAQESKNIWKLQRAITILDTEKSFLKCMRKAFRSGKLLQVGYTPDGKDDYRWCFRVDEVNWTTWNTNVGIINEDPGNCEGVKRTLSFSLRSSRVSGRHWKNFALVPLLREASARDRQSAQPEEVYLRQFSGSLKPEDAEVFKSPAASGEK
#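 TRPV1-expressing cells were cultured overnight at 35.5C and loaded with Fluo-8 calcium dye for 40 to 90 min at room temperature. After a 10 s baseline, compound was added and calcium influx was read kinetically for 3 min (ex 480/em 520 nm).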
# gsp ag: agonists of gsp mutant (McCune-Albright syndrome); 340,000 compounds, 0.13% hits; Potency, µM (titrated, usually from 76.9 µM), for inactives: at the top dose activation (cAMP increase), usual class: activators; gsp mutant cells, cAMP HTRF, 30 min; control for the full effect not named in the record; active = well fitted activation curve with a large enough effect; inconclusive = small, poorly fitted or top-dose-only effect, or another doubt; inactive = no such curve, though single readings can be large or run the other way; cell line not stated here;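 further: phosphodiesterase inhibitor Ro 20-1724 added with compounds to block cAMP breakdown; potency means the concentration at half of the fitted maximal effect; nearly all actives have a fitted effect of over 60% in size; about a fifth of the inactives were tested at one dose only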
#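 Cells in DMEM/10% FBS with G418 were pretreated with compounds in DMSO plus […] (300 uM stock) for 30 min at 37C. cAMP was measured by HTRF (cAMP-d2 plus anti-cAMP antibody-K) after 30 min at room temperature.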
# Menin MLL FP FL: inhibitors of human menin-MLL interaction, wild-type MLL peptide | FP activity change, % at 61.4 µM | 290,000 tested, under 10 active | Fluorescence polarization, fluorescein-MLL peptide displacement from menin | AID 1766; inconclusive = falling polarisation curve, or a change in total fluorescence; inactive = total fluorescence flat and polarisation flat or rising; no compound was filed as active; the % refers to the polarisation; negative = inhibition;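 further: % of control where 0% means no effect; inhibitors lower the polarisation; unlabelled MLL peptide was the positive control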
# D2 PAM: human D2 receptor positive allosteric modulation. DiscoveRx D2 beta-arrestin cells, luminescence, 90 min; 100% = 57 uM dopamine signal. potentiation, % (concentration not given with the values). 360,000 compounds, 0.23% hits. P14416; active = potentiation of 50% or more; inconclusive = 30% to 50%; inactive = 30% or less;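 further: tested on top of an EC20 dose of dopamine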
#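 D2 cells co-treated with compound plus 50 nM dopamine (EC20) for 90 min at 37 deg C to detect potentiation. Beta-arrestin recruitment was read as enzyme-fragment luminescence after 1 h at ambient temperature. Full response was set by 57 uM dopamine.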
# ClpP mod: qHTS Assay for Activators of ClpP. 340,000 compounds, 1.9% hits. purified B. subtilis ClpP, FRET peptide cleavage, 20 min. Potency, µM (highest dose often 57.5 µM), for the others: top-dose activity change, negative = active; active = well fitted falling curve with a large enough effect; inconclusive = small, poorly fitted or top-dose-only effect; inactive = no such curve, though single readings can be large or run the other way; further: potency means the concentration at half of the fitted maximal effect; the source files actives as falling curves though it sought activators and does not explain the sign; nearly all actives have a fitted effect of over 65% in size; many hits overshoot -100%
# Target sequence (P80244 whole entry, looked up): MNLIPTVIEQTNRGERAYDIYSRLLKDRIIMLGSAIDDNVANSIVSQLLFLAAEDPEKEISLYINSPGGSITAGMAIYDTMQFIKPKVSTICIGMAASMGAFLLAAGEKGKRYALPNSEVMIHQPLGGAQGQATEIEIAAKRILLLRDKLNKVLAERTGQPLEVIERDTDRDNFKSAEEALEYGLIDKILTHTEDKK
#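 FRET quenching reversal measured ClpP activation: 10 microg/mL B. subtilis ClpP at pH 8 with the FRET-FV decapeptide, read at 430 nm after 320 nm excitation. The 20-min minus 0-min signal was scaled between DMSO/no-enzyme wells and ADEP (5.8 microM final).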
# gsp antagonist: antagonists of gsp mutant (McCune-Albright syndrome); gsp-mutant cells, cAMP HTRF, 30 min; control for the full effect not named in the record; Potency, µM (highest dose often 76.9 µM), inactives show at the highest dose activity change, negative = inhibition, actives largely listed as inhibitors; 340,000 compounds, 0.4% hits; active = falling curve of any shape with a large fitted effect; inconclusive = falling curve, mostly with a smaller effect; inactive = flat or rising curve; cell line not stated here;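 further: intracellular cAMP measured with PDE inhibitor Ro 20-1724 present during compound exposure; potency means the concentration at half of the fitted maximal effect; on the % scale 0 is the no-effect control and ±100 the full control effect; nearly all actives have a fitted effect of over 65% in size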
#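 Cells in G418 medium, seeded 16-24 h, 37C; buffer exchange to DPBS + 1 mM CaCl2, 0.5 mM MgCl2, 0.05% BSA; cpds in DMSO + […] (300 uM stock), 30 min 37C; HTRF cAMP detection.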
# Active calls of the source: *; ? = inconclusive; . = not tested or not shown; & = joins results of further samples; [ ] = remark or other dose.
SMILES,Sfp inh,TRPV1 PAM,gsp ag,Menin MLL FP FL,D2 PAM,ClpP mod,gsp antagonist
O=C(CN1C(=O)CSc2ccc(S(=O)(=O)N3CCOCC3)cc21)NCCCN1CCOCC1,14%,?,15%,-8.6,-6,.,-12%
COc1ccc2c(C)cc3nncn3c2c1,-25%,6,23%,0.3,-2,.,0%
COC(=O)c1ccccc1NC(=O)Nc1cc(C(C)(C)C)on1,8%,-26,18%[15.4 µM],1.6,-7,-8.0%,-9%
O=C(Nc1ccc(C(F)(F)F)cc1)N1CCN(c2ccnc3cc(Cl)ccc23)CC1,11%,2,-11%[15.4 µM],0.9,-5,.,?
CCOC(=O)c1c(NC(=S)NC(=O)c2ccc(Cn3cc(Cl)cn3)o2)sc2c1CCC(C)C2 (stereo not given),2%,8,0%,3.9,-9,-0.6%,3%
O=C(O)C1CC=CCC1C(=O)Nc1ccccc1 (stereo not given),7%,13,3%,2.8,-1,4.2%,2%
O=C(NC1CCCN(Cc2ccc(Cl)cc2)C1)c1cnc2ccccn2c1=O (stereo not given),1%,-8,29%,3.7,-29,12%,1%
O=C(c1ccccc1)N1CCN(c2ccc([N+](=O)[O-])c(NCc3ccco3)c2)CC1,11%,0,16%,-0.4,-6,0.1%,-3%
Cc1nc(C(=O)N2CCCC(C(=O)c3cccc(OC(C)C)c3)C2)cs1 (stereo not given),25%,1,-1%,.,10,-3.7%,4%
O=C(CSc1nncs1)NC(=O)NC1CCCC1,1%,6,-44%[inhibitor],-5.4,-68,-1.8%,4%
O=C(Nc1ccccc1)OCc1cn(-c2ccc(Cl)cc2)nn1,17%,6,?,0.1,2,-0.9%,11%
CC1(c2cccc(Br)c2)NC(=O)N(CC(=O)NCC2CCCO2)C1=O (stereo not given),.,6,17%,.,-4,-1.1%,0%
COc1ccc(N=C2SC(C(=O)Nc3ccc(OC)cc3)CC(=O)N2CCN2CCOCC2)cc1 (stereo not given),0%,-7,-17%,-3.3,-28,1.0%,-9%
CC1(C)Cc2ccccc2-c2nnc(SCc3ccccc3)n21,-3%,-12,-61%[inhibitor],0.3,-13,-9.5%,-19%
Cc1ccc(NC(=O)Cn2nnc(C(=O)NCc3ccco3)c2N)cc1,-5%,15,20%,1.4,-12,0.6%,0%
CC(C)c1nc(NCCO)c2nnn(Cc3ccccc3)c2n1,-7%,6,-1%[15.4 µM],3.6,5,-1.0%,15%
CC(=O)c1ccc(S(=O)(=O)Nc2ccc(C(=O)NC3CC3)cc2)cc1,.,-1,-3%,.,-2,-1.8%,2%
O=C(c1ccc2ccccc2c1)N1CCN(S(=O)(=O)/C=C/c2ccccc2)CC1,?,5,?,-0.9,-6,.,-16%
O=C(CSc1nc2ccccc2o1)N1CCOCC1,16%,-14,-30%[inhibitor],0.0,-4,2.0%,7%
CCC(C)NCC(=O)Nc1cc(S(=O)(=O)N(CC)c2ccccc2)ccc1Cl (stereo not given),7%,-18,2%,-0.3,-30,-8.2%,-8%
CC1CCN(C(=O)CSc2nnc3c(n2)[nH]c2ccc(F)cc23)CC1,5%,14,3%,.,-2,.,-1%
COC(=O)/C=c1/s/c(=C(/C#N)C(=O)NCc2ccccc2)n(-c2ccccc2)c1=O,-11%,8,-25%,?,5,-1.0%,-13%
CN(C)c1cccc(C(=O)NNC(=O)NC2CCCCC2)c1,9%,-4,-38%[inhibitor],3.6,-14,3.9%,6%
c1ccc(Nc2nc(-c3cccs3)cs2)nc1,-6%,-2,16%,0.2,-9,-4.7%,0%
Cc1cc(C)cc(N(C(=O)CNC(=O)c2ccco2)C(C(=O)NC2CCCC2)c2ccncc2)c1 (stereo not given),12%,-5,10%[15.4 µM],-1.4,-2,-0.6%,-23%
O=C(COc1ccc(Cl)cc1)Nc1ccc2c(c1)OCO2,9%,-12,11%[15.4 µM],-3.8,-7,.,-7%
O=S(=O)(c1ccc(-c2csc(Nc3ccc(Br)cc3)n2)cc1)N1CCCC1,2%,-22,6%,.,19,3.2µM*,-5%
CCOc1ccc(C(C(=O)NC(C)(C)C)N(CCOC)C(=O)CCC(=O)Nc2ccccn2)cc1 (stereo not given),8%,?,-4%[15.4 µM],-0.3,-4,.,5%
O=C(Cc1csc(NC(=O)Nc2ccc(Cl)cc2)n1)NCc1ccccn1,.,9,-24%,.,14,-0.5%,-2%
O=C(NCc1ccc(Cl)cc1)c1cc2c(s1)CS(=O)(=O)C2,1%,-10,0%,.,-9,-7.0%,-5%

# 2 entries from above, with two lines to a compound.
# Results follow in this order: Sfp inh, TRPV1 PAM, gsp ag, Menin MLL FP FL, D2 PAM, ClpP mod, gsp antagonist
O=C(COc1ccc(Cl)cc1)Nc1ccc2c(c1)OCO2
    9%, -12, 11%[15.4 µM], -3.8, -7, ., -7%
CC(C)c1nc(NCCO)c2nnn(Cc3ccccc3)c2n1
    -7%, 6, -1%[15.4 µM], 3.6, 5, -1.0%, 15%

# More results follow.
SMILES,Sfp inh,TRPV1 PAM,gsp ag,Menin MLL FP FL,D2 PAM,ClpP mod,gsp antagonist
COC(=O)Cc1ccc(NC(=S)N2CCN(c3ccccn3)CC2)cc1,7%,5,-41%[inhibitor],-2.2,-1,-6.3%,-11%
COc1ccccc1N1CCN(C(=O)C(CC(C)C)NC(=O)C2CCCCC2)CC1 (stereo not given),15%,6,13%[15.4 µM],-1.5,-18,0.9%,-23%
O=C(c1cc(COc2ccc(F)cc2Cl)on1)N1CCC(c2ccncc2)CC1,-11%,5,0%[15.4 µM],1.0,-12,1.0%,-12%
CSc1ccc(S(=O)(=O)N2CCC(C(=O)NCc3cccnc3)CC2)cc1,8%,-6,-3%,-5.2,-8,.,7%
Cc1ccc(CC2CC(=O)N(c3cc(C)ccc3C)C2=O)cc1 (stereo not given),7%,-8,-27%,-2.8,16,-0.9%,6%
O=C(Nc1ccc(F)c(F)c1)c1ccc(F)c(S(=O)(=O)N2CCOCC2)c1,20%,-13,.,4.1,.,.,.
O=S(=O)(c1ccc2ccccc2c1)N1CCNCC1,6%,23,11%[15.4 µM],1.3,-1,0.9%,-6%
CCN(C(=O)c1ccc(NC(=O)Cc2ccccc2)cc1)c1ccccc1,2%,-4,6%[15.4 µM],.,15,-2.0%,-8%
CS(=O)(=O)c1cnc(-c2ccccc2)nc1Sc1ccc(F)cc1,10%,25,-37%[inhibitor][15.4 µM],1.8,-5,.,14%
C(=N\N1CCOCC1)/c1cccs1,17%,14,16%,2.0,2,-4.0%,4%
CCOc1ccc2ncc(S(=O)(=O)c3ccc(C)cc3)c(N3CCC4(CC3)OCCO4)c2c1,-1%,-3,-11%,7.8,-22,-3.2%,-6%
COc1ccc(OC)c(S(=O)(=O)N2CCC(C(=O)NC3CCCC3)CC2)c1,13%,17,-25%,1.6,-4,.,3%
CCOC(=O)Cc1csc(NC(=O)c2cccnc2)n1,4%,8,?,2.3,7,1.2%,-12%
Cc1cc2oc(=O)cc(CSc3nnc(C)n3N)c2cc1C(C)C,8%,3,?,-0.9,18,-9.5%,9%
COc1ccc(OC)c2sc(NNC(=O)COc3ccccc3)nc12,-4%,?,-26%,-7.9,-15,0.8%,-1%
O=C(Nc1csnn1)OCc1ccccc1,.,.,-24%,.,4,1.9%,12%
COc1ccccc1CCNC(=O)C(=O)NCC1OCCN1S(=O)(=O)c1ccc([N+](=O)[O-])cc1 (stereo not given),16%,0,?,-2.2,19,0.6%,-5%
COc1ccc2c(c1OC)C(=O)OC2N1C(=O)CC[C@H]1C(=O)Nc1ccc2c(c1)OCO2 (stereo not given in full),3%,2,.,0.1,8,-8.0%,1%
COCCn1c(COc2cccc(OC)c2)nnc1SCC(=O)NC1CCCCC1,7%,-1,-7%,1.1,0,.,-3%
CC(NS(=O)(=O)c1ccc2c(c1)c(=O)n(C)c(=O)n2C)C(=O)NC1CCCCC1 (stereo not given),11%,15,24%,-3.3,-9,-21%,4%
CCCc1ccc(OCc2ccccc2)c2c(=O)cc(C(=O)OCC)oc12,23%,6,-1%,1.4,0,-2.7%,1%
CCOC(=O)c1c(NC(=O)CCCC(=O)O)sc2c1CCC2,23%,14,?,-8.0,-3,.,-32%
Cc1coc2c(C)c3oc(=O)c(CC(=O)N[C@@H](CC(C)C)C(=O)O)c(C)c3cc12,1%,-18,17%,-4.3,-3,3.6%,-1%
O=C(c1ccc(Cl)cc1)C1CCN(C(=O)c2ccc(F)cc2)CC1,1%,-14,-47%,-6.8,-13,0.3%,-6%
O=C(CSc1nccn1Cc1ccc(F)cc1)NC1CCCC1,15%,-2,9%,5.3,-7,1.6%&0.8%,2%
NC(=O)c1ccccc1-c1nc(-c2ccccc2)no1,16%,5,-31%[inhibitor],6.6,-7,-0.9%,-11%
Cc1ccccc1NC(=O)CC(C)S(=O)(=O)c1ccc2c(c1)NC(=O)CO2 (stereo not given),4%,-9,15%,.,-4,-3.0%,11%

# 5 entries drawn at random from those above, as already listed:
SMILES,Sfp inh,TRPV1 PAM,gsp ag,Menin MLL FP FL,D2 PAM,ClpP mod,gsp antagonist
COCCn1c(COc2cccc(OC)c2)nnc1SCC(=O)NC1CCCCC1,7%,-1,-7%,1.1,0,.,-3%
O=C(CSc1nccn1Cc1ccc(F)cc1)NC1CCCC1,15%,-2,9%,5.3,-7,1.6%&0.8%,2%
NC(=O)c1ccccc1-c1nc(-c2ccccc2)no1,16%,5,-31%[inhibitor],6.6,-7,-0.9%,-11%
Cc1coc2c(C)c3oc(=O)c(CC(=O)N[C@@H](CC(C)C)C(=O)O)c(C)c3cc12,1%,-18,17%,-4.3,-3,3.6%,-1%
CC(NS(=O)(=O)c1ccc2c(c1)c(=O)n(C)c(=O)n2C)C(=O)NC1CCCCC1 (stereo not given),11%,15,24%,-3.3,-9,-21%,4%
